Compound activity (PubChem)
Sa helicase inh: blocks Staphylococcus aureus DNA helicase. 120,000 compounds, 0.05% hits. AID 485395. inhibition, %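 (tested at about 80 µM)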. purified S. aureus helicase, fluorescence unwinding assay; about half of the hits fall short of the stated cut;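 active = both duplicates at 50% or more, or one of them with a favoured structure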;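 note: 0% = mean of negative control wells and 100% = mean of positive control wells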
MgrA DNA FP: modulators of Staphylococcus aureus MgrA DNA binding; 84,000 compounds, 0.13% hits; fluorescence polarization; inhibition, %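 (about 10 µg/mL by stock and volumes)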;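 active = above 50% in either of two replicates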;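 note: 0% = protein plus DNA without compound and 100% = DNA alone without protein; higher means less MgrA bound to DNA so lower polarization; one replicate is shown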
Active calls of the source: *; / = not tested or not shown. An excerpt; the hit share may differ from the screen's.

MgrA DNA FP | Sa helicase inh | molecule
/ | -19 | COc1ccc(S(=O)(=O)N2CCC(NC(=O)NCC3CCCO3)CC2)cc1 (stereo not given)
-1.9 | -1 | CN1CCN(CC2COc3ccccc3O2)CC1 (stereo not given)
0.1 | 8 | CC(NCc1ccccc1)C1COc2ccccc2O1 (stereo not given)
-1.5 | 6 | CN(C)C(CNS(=O)(=O)c1ccc(F)cc1)c1cccnc1 (stereo not given)
-2.5 | 7 | O=C(Nc1cccnc1)OC1CCCC1
7.3 | 10 | CN(C)C(=O)Cn1c(=O)n(S(=O)(=O)c2ccccc2)c2ccccc21
-19 | 18 | Cc1ccc2c(c1)cc(CN(Cc1ccco1)C(=O)N(C)C)c1nnnn12
/ | -1 | O=C(CNC(=O)c1cccc(F)c1)OC1CCCCC1=O (stereo not given)
/ | 8 | CC(=O)NC(Cc1c[nH]c2ccccc12)C(=O)OCc1cc(=O)n2c3c(sc2n1)CCCC3 (stereo not given)
-0.6 | / | CCCCn1c2ccccc2c2nc3cc(OC)c(OC)cc3nc21
/ | 27 | Cc1nc2ccn(Cc3ccccc3)c(=O)c2cc1C(=O)O
/ | 7 | CCC(C)c1c(O)nc(SCC(=O)NCc2ccco2)[nH]c1=O (stereo not given)
/ | -15 | O=C(COC(=O)C1CC1)c1ccc(Cl)s1
/ | -17 | Cc1nc(C)c(C(=O)NCc2ccccc2Cl)o1
0.9 | -9 | Brc1ccc(NC2=Nc3ccccc3CC2)cc1
2.1 | 5 | CC1=CC(C)C(C(=O)O)C(C(=O)Nc2ccccc2)C1 (stereo not given)
/ | 18 | Cn1nc(-c2ccc(S(=O)(=O)NCc3ccco3)s2)cc1C(F)(F)F
/ | -14 | CSc1c(C#N)c(-c2cccs2)nn1CC(=O)N/N=C/c1cccs1
-1.6 | 1 | Nc1cc(=O)[nH]c(=O)n1CC12CC3CC(CC(C3)C1)C2
-2.4 | / | Cc1ccc(C)c(Nc2n[nH]c(=S)s2)c1
1.8 | 3 | Cc1cc(NCc2cccnc2)c2ccc(Cl)cc2n1
-0.1 | / | CC(C)NC(=S)N1CCCN2C(=O)c3ccccc3C21 (stereo not given)
/ | -13 | O=C(O)CNC(=O)c1cn(-c2ccccc2)nc1-c1ccc(Cl)s1
0.0 | 9 | CC1(c2ccc(Cl)cc2)NC(=O)CS1 (stereo not given)
/ | 15 | CCOC(=O)c1c(NC(=O)c2ccccc2F)sc(C(=O)N2CCCCC2)c1C
1.2 | -18 | CCOC(=O)C1=C(N)OC(c2cccc(OC)c2)=C(C#N)C1c1ccccc1 (stereo not given)
/ | -9 | Cc1cc(C)cc(NS(=O)(=O)c2coc(C(N)=O)c2)c1
-1.2 | / | COC(=O)c1sccc1Br
/ | -9 | Nc1nc(SCC(=O)N(C2CCCCC2)C2CCS(=O)(=O)C2)nc2sc3c(c12)CCCC3 (stereo not given)
1.8 | / | CCCc1c(C)nn(-c2ncccc2N)c1C
/ | -17 | Cc1ccc(C)n1CCC(C)C
5.2 | / | Cn1c(=O)c2c(O)c(C=Nc3ccc(Cl)cc3)c(=O)n(C)c2n(C)c1=O
/ | 2 | COc1ccc(NC(=O)/C(=C/c2ccc3c(c2)OCO3)NC(C)=O)cc1
6.8 | 9 | CC(=O)NC(c1ccccc1)c1ccc2cccnc2c1O (stereo not given)
-0.2 | 0 | CC1C2=C(CCCC2=O)Nc2nc3ccccc3n21 (stereo not given)
/ | 0 | Oc1ccc(N=Cc2cn(-c3ccccc3)nc2-c2ccco2)cc1
/ | 0 | Cc1ccc(-c2nc3ncccn3c2NC2CCCC2)o1
1.9 | / | O=C(NN(Cc1c(F)cccc1Cl)c1ccccc1)C(Cl)(Cl)Cl
-3.3 | -3 | COc1cccc(/C=C/C(=O)O)c1
/ | 1 | Cc1nc2c(c(C)c1CCC(=O)NC(C)C)c(=O)n(C)c(=O)n2C
/ | -2 | CCCCCC1=CCC/C1=N\NC(=O)c1ccc(N(CC)CC)cc1
/ | 1 | Cc1oc(-c2cc(Cl)ccc2Cl)cc1C(=O)NCCO
-2.8 | / | COC(=O)c1ccccc1S(=O)(=O)N1CCc2[nH]c3ccc(F)cc3c2C1
/ | -4 | CC(C)CC(C(=O)NCc1ccccc1F)N1C(=O)C2CC=CCC2C1=O (stereo not given)
3.4 | 8 | O=S(=O)(NCCC1=CCCCC1)c1ccc(-n2cccn2)cc1
2.4 | / | O=C1CNC(=S)N1Cc1ccccn1
/ | -14 | COc1ccccc1NC(=O)c1cc(=O)c2ccccc2o1
/ | 5 | COc1ccccc1NS(=O)(=O)c1ccc2oc(SCc3cn4c(C)cc(C)nc4n3)nc2c1
/ | -16 | NCC(O)COCC1COc2ccccc2O1 (stereo not given)
/ | -2 | O=C(O)CCn1c(-c2cccs2)n[nH]c1=S

(continued)
MgrA DNA FP | Sa helicase inh | molecule
-2.0 | -14 | CC1Cc2ccccc2N1C(=O)CSC1=NCCS1 (stereo not given)
-1.8 | / | N#C/C(N=Cc1cccs1)=C(\C#N)NCc1c(F)cccc1Cl
-3.2 | 12 | Cc1ccc(-n2c(=O)cc(N3CCc4ccccc43)[nH]c2=O)cc1
4.0 | -5 | CC1CCCN(C(=O)C2CCN(CC3CC=CCC3)CC2)C1 (stereo not given)
-0.7 | / | N#Cc1ccccc1NS(=O)(=O)c1cccs1
1.4 | / | COc1cccc(NC(=O)NC2Cc3ccccc3C2)c1
-0.7 | 4 | Fc1cccc(CNCc2cn[nH]c2-c2ccc(Br)cc2)c1
/ | -1 | Cc1noc(C)c1CSCC(=O)N1CC(C)SC1=Nc1ccc(Cl)cc1 (stereo not given)
-14 | 7 | CCN(CCO)C1CC(=O)N(c2ccccc2C)C1=O (stereo not given)
/ | 14 | CCOc1cc2oc(=O)cc(-c3ccccc3)c2cc1Cl
/ | 10 | Cc1sc2ncnc(N3CCC(C(=O)OCC(=O)NC4CC4)CC3)c2c1C
/ | -4 | CN(C)S(=O)(=O)c1cccc(-c2nnc(SCc3ccc4c(c3)OCCO4)o2)c1
0.8 | -15 | O=C(/C=C/c1ccco1)OCC(=O)C12CC3CC(CC(C3)C1)C2
0.5 | / | N#CCC(=O)Nc1ccncc1
/ | -11 | O=C(c1ccccn1)N1CCN(c2ccc(C(F)(F)F)cn2)CC1
-6.5 | 0 | CCCn1c(N2CCN(Cc3ccc(Cl)cc3)CC2)nc2ccccc21
-0.7 | -9 | c1ccn2c(Cc3nnc4ccccn34)nnc2c1
/ | -27 | Cc1[nH]c2ccccc2c1C(c1ccncc1)N1CCN(C)CC1 (stereo not given)
1.2 | 0 | CN(C)c1ccc(/C=C2/S/C(=N/O)NC2=O)cc1
3.5 | 2 | CC(=O)N=c1cccc(NC(C)=O)n1O
-2.8 | / | Cc1cc(C)c(S(=O)(=O)Cc2ccccc2)c(=O)[nH]1
/ | 9 | Cn1c(=NC(=O)COCC(=O)N=c2sc3cccc(F)c3n2C)sc2cccc(F)c21
0.3 | / | Cn1c2ccccc2c2nc3ccccc3nc21
-9.6 | -5 | CCCC1CC(C)(/C(C)=N\NC(N)=S)OC1=O (stereo not given)
/ | 13 | Cc1ccc(-c2nnc(SCC(=O)NC3CCCCC3)o2)cc1
/ | 8 | CCC(=O)Nc1ccc[n+](-c2nc3ccccc3nc2C(=C=[N-])C#N)c1
2.4 | 12 | O=C(CC1(O)C(=O)Nc2ccccc21)c1cccc(-n2cnnn2)c1 (stereo not given)
0.1 | 12 | Cn1c2ccccc2c2c(C(=O)N3CCCCC3)cn(C3CCCC3)c(=O)c21
/ | 3 | COC(=O)c1ccc(/C(O)=C(\C#N)c2nc3ccccc3s2)cc1
-6.6 | / | COC(=O)c1cc(Br)c(Br)s1
0.0 | 10 | COC(=O)c1cn(NC(=O)C(c2ccccc2)C2CCCC2)c(=O)c2ccccc12 (stereo not given)
/ | -13 | CC1CN(C(=O)C(C)N2CCN(c3ncc(C(F)(F)F)cc3Cl)CC2)CC(C)O1 (stereo not given)
0.8 | 10 | Cc1cccc(C)c1NC(=O)C(c1ccccc1)N(Cc1ccco1)C(=O)Cn1nnc2ccccc21 (stereo not given)
0.5 | -26 | COc1ccc2c(c1)C(=O)N(C)C(=O)C2
-3.1 | / | CN(C)CCNc1cc(-c2ccncc2)nc2ccccc12
/ | -18 | Cc1ccc(-n2c(=O)[nH]c(=O)c3sc(N)nc32)cc1
-5.7 | 14 | CCOC(=O)CCN1CCCCC1
/ | 4 | O=C(CCn1c(=O)c2cccn2c2cccnc21)NC1CCCC1
/ | 20 | CCS(=O)(=O)c1ccc2oc(SCC(=O)Nc3ccc(Br)cc3F)nc2c1
0.8 | 1 | CCCn1c(=O)c2c(nc3n2CCCN3Cc2ccco2)n(C)c1=O
2.4 | 13 | Cc1cc(C)c(C#N)c(S(C)(=O)=O)n1
-1.1 | / | Oc1ccc(-n2nnnc2SCc2c(F)cccc2Cl)cc1
/ | 8 | CCCC(O)c1ccco1 (stereo not given)
/ | 10 | COc1cc2c(cc1OC)CN(C(=O)CNC(=O)C13CC4CC(CC(C4)C1)C3)CC2
/ | -32 | Cc1ccc(S(=O)(=O)NCC(=O)O)cc1
-8.1 | 6 | COc1ccccc1N1CCN(c2cc(N3CCCC3)nc(C)n2)CC1
-0.7 | -7 | O=C(NCCOc1cccc(C(F)(F)F)c1)c1cccc(NC2=NC3CS(=O)(=O)CC3S2)c1 (stereo not given)
/ | -15 | CS(=O)(=O)NCC1CCCO1 (stereo not given)
/ | 20 | CSc1ccc(NC(=O)NC2CCN(c3ncccn3)CC2)cc1
2.0 | 14 | Cc1ccc(OCCn2cc(C(=O)c3ccccc3)c3ccccc32)cc1

The listing continues.
MgrA DNA FP | Sa helicase inh | molecule
-2.2 | / | COc1ccc(OC)c(Sc2nc(C)c([N+](=O)[O-])c(C)c2C#N)c1
-3.5 | 1 | CCN(CC)C(=O)Nc1ccc(S(=O)(=O)NC)cc1
1.6 | / | O=C(NCc1csc(-c2cccs2)n1)C1=Cc2ccccc2OC1
-5.0 | 7 | CCc1c(C(C)O)oc2ccc3c(C)cc(=O)oc3c12 (stereo not given)
2.9 | / | O=C1C2C3C=CC(O3)C2C(=O)N1OCc1c(F)cccc1Cl (stereo not given)
/ | -13 | CC(c1ccc(F)cc1)N1CCCC1 (stereo not given)
/ | -46 | Cc1c(/C=N/N)c2ccccn2c1C#N
1.5 | -4 | Cn1c(-c2ccccc2)cnc1SCc1ccccc1
-1.1 | / | O=C(NNC(=NS(=O)(=O)c1ccccc1)NNC(=O)c1ccc(F)cc1)c1ccc(F)cc1
/ | 5 | N#Cc1ccccc1NC(=O)CCS(=O)(=O)c1ccccc1

An excerpt from above in order of formula weight, high to low.
MgrA DNA FP | Sa helicase inh | molecule
/ | 5 | COc1ccccc1NS(=O)(=O)c1ccc2oc(SCc3cn4c(C)cc(C)nc4n3)nc2c1
-1.1 | / | O=C(NNC(=NS(=O)(=O)c1ccccc1)NNC(=O)c1ccc(F)cc1)c1ccc(F)cc1
/ | -4 | CN(C)S(=O)(=O)c1cccc(-c2nnc(SCc3ccc4c(c3)OCCO4)o2)c1
/ | 10 | COc1cc2c(cc1OC)CN(C(=O)CNC(=O)C13CC4CC(CC(C4)C1)C3)CC2
/ | -1 | Cc1noc(C)c1CSCC(=O)N1CC(C)SC1=Nc1ccc(Cl)cc1 (stereo not given)
/ | 18 | Cn1nc(-c2ccc(S(=O)(=O)NCc3ccco3)s2)cc1C(F)(F)F
5.2 | / | Cn1c(=O)c2c(O)c(C=Nc3ccc(Cl)cc3)c(=O)n(C)c2n(C)c1=O
/ | -13 | O=C(O)CNC(=O)c1cn(-c2ccccc2)nc1-c1ccc(Cl)s1
1.6 | / | O=C(NCc1csc(-c2cccs2)n1)C1=Cc2ccccc2OC1
2.4 | 12 | O=C(CC1(O)C(=O)Nc2ccccc21)c1cccc(-n2cnnn2)c1 (stereo not given)
/ | -9 | Cc1cc(C)cc(NS(=O)(=O)c2coc(C(N)=O)c2)c1
-14 | 7 | CCN(CCO)C1CC(=O)N(c2ccccc2C)C1=O (stereo not given)
/ | -18 | Cc1ccc(-n2c(=O)[nH]c(=O)c3sc(N)nc32)cc1
2.1 | 5 | CC1=CC(C)C(C(=O)O)C(C(=O)Nc2ccccc2)C1 (stereo not given)
-2.4 | / | Cc1ccc(C)c(Nc2n[nH]c(=S)s2)c1
2.4 | 13 | Cc1cc(C)c(C#N)c(S(C)(=O)=O)n1
0.5 | -26 | COc1ccc2c(c1)C(=O)N(C)C(=O)C2
-5.7 | 14 | CCOC(=O)CCN1CCCCC1
/ | -15 | CS(=O)(=O)NCC1CCCO1 (stereo not given)
0.5 | / | N#CCC(=O)Nc1ccncc1
/ | 8 | CCCC(O)c1ccco1 (stereo not given)

Next section:
MgrA DNA FP | Sa helicase inh | molecule
-1.7 | 10 | Cn1c(C(=O)NCc2ccccc2)cc(=O)n(C)c1=O
/ | 6 | O=C(NO)c1ccc(C(F)(F)F)cc1
/ | -87 | Cc1ccc(S(=O)(=O)N(C)c2nc3ccccc3nc2SCC#N)cc1
1.2 | / | O=C(CCC(=O)c1cccs1)c1cccs1
/ | -19 | Clc1ccc(SCc2nc3ncccn3c2Br)cc1
-2.4 | / | NC(=O)c1nnc2cc(-c3ccccc3)nn2c1-c1ccccc1Cl
/ | -5 | O=C(OCC(=O)N1CCC(c2ccccc2)=N1)c1ccc(Br)o1
0.8 | / | CC(=O)Oc1c(C)c(C)c2c(c1C)CCC(C)(CCCC(C)CCCC(C)CCCC(C)C)O2 (stereo not given)
0.7 | 7 | CCN(CC)C(=O)c1ccccc1Sc1ccccc1C#N
-0.9 | 3 | COc1cccc(CNC(=O)CCS(=O)(=O)Cc2ccc(C)cc2)c1
0.4 | 11 | COc1ccc(N2CCN(C(=O)c3ccccc3NC(=O)c3ccccc3)CC2)cc1
/ | -142 | c1ccc(C2CC(c3cccs3)=Nc3nc4ccccc4n32)cc1 (stereo not given)
/ | 33 | CCOc1ccc(C2c3c(oc4ccc(F)cc4c3=O)C(=O)N2CCOC)cc1 (stereo not given)
-0.4 | 15 | CCC(=O)NC(CC)Cc1ccccc1 (stereo not given)
3.2 | 15 | Cc1ccc(C=C2C(=O)N(C)C(=O)N(C)C2=O)cc1
-2.4 | 13 | O=C(O)CCNc1ccc(Br)cc1C(=O)O
-2.9 | 15 | O=C(Cc1ccccc1)NCc1ccccn1
